MT1-MMP act inh: MT1-MMP (human) activation inhibition; HT1080 RFP-PRO-GFP cells, GFP/RFP ratio fluorescence, overnight; percent of plate control window, DMSO zero; P50281; 0.061% of 360,000 active; GFP/RFP ratio change, % at 20 µM;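 active means GFP/RFP ratio change of at least 30% with cell ATP level not reduced by more than half and red fluorescence within 50% of control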; further: strong numbers were not always called active
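Compound: 20 µM single dose, 1% DMSO / System: HT1080 RFP-PRO-GFP cells / Controls: DMSO and RFP-L50D-GFP cell wells / Read-out basis: GFP/RFP fluorescence ratio / Schedule: overnight compound exposure at 37 °C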
Rce1 inhib: blocks yeast Ras-converting enzyme | 0.27% of 290,000 active | AID 2563 | yeast membranes, quenched prenylated peptide cleavage fluorescence | Q03530 | calls only;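 active means fall in fluorescence gain of 50% or more versus controls, with final raw signal at or below 3038400; inconclusive means same 50% fall but final raw signal above 3038400; inactive means fall in fluorescence gain under 50%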;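 further: plate controls were neutral control wells for no effect and wells lacking membranes for full effect; tested at 10 µM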
Yeast UUG start: modulators of start codon recognition fidelity in yeast; 0.13% of 350,000 active; S. cerevisiae UUG-firefly luciferase reporter, luminescence/redox ratio; activity score, % at 18.7 µM;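 active means replicate mean at a twofold rise or more, about +100% in these data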;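 further: firefly luciferase made from a UUG start codon reports start codon fidelity; reporter light over untreated wells divided by growth signal over untreated wells; some hits fall short of that in this replicate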
eIF4H FP inh: inhibitors of RNA binding by human eIF4H | inhibition, % at 35 µM | 0.94% of 290,000 active | Q15056 | eIF4H fluorescence polarization binding assay;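 active means 50% or more with normal probe brightness, or confirmed in later tests; inconclusive means above 50% with abnormal brightness, or retests that disagree; inactive means below 50% or failed in later tests; about a fifth of its hits are not listed in these tables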;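 further: calls also rest on retests at 20 µM and on dose response follow-up; 0% = protein and probe with vehicle and 100% = probe without protein; strong numbers were not always called active; many hits fall short of the cut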
Env fusion inh: inhibitors of HIV Env-mediated cell fusion | HeLa-JRFL Env/CEM21 cell fusion, luciferase | inhibition, % at 12.3 µM | 1.1% of 360,000 active;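 active means mean replicate inhibition score of at least 50 and every replicate individually at or above 50; inconclusive means only one of the two criteria met; inactive means mean below 50 and not all replicates reaching 50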;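 further: 0% = plate neutral controls and 100% = maraviroc near 300 nM; one replicate is shown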
CSC inhib: cancer stem cell inhibition | 1.1% of 300,000 active | AID 2717 | inhibition, % at 7.5 µM | cancer stem cell-like cells viability, luminescence;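 active means mean at 75% or more and at least half the replicates too; inconclusive means mean and replicates disagree; tested in HMLE shEcad cells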;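 further: 0% = median of negative and 100% = median of positive control wells; the first replicate is given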
PABP FP inh: blocks human PABP binding to poly(A) RNA; inhibition, % at 35 µM; 1% of 290,000 active; P11940; AID 2014; fluorescence polarization;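 active means 50% or more with normal probe brightness, or confirmed in later tests; inconclusive means above 50% with abnormal brightness, or retests that disagree; inactive means below 50% or failed in later tests; about a fifth of its hits are not listed in these tables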;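 further: calls also rest on retests at 20 µM and on dose response follow-up; controls were probe without protein and protein plus probe with vehicle; some compounds called inactive have numbers as strong as hits; many hits fall short of the cut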
Target sequence (P11940 whole entry, looked up): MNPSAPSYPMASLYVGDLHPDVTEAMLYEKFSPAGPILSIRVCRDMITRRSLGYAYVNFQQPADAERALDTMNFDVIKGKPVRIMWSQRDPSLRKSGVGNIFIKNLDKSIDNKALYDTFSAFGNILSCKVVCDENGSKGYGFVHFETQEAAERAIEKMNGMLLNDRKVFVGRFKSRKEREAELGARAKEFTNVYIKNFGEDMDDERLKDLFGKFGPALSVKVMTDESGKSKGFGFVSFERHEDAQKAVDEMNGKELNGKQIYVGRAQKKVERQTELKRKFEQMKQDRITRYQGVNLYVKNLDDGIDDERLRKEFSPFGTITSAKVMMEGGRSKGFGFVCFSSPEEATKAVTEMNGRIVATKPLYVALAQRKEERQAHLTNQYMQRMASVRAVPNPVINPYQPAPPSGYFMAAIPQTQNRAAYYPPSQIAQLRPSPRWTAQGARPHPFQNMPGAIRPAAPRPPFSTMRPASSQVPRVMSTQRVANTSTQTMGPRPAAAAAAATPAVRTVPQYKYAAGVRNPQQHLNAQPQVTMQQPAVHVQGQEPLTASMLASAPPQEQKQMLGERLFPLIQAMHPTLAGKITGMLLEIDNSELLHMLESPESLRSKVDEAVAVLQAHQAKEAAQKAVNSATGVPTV
MT1-MMP act inh RFP: also measured in MT1-MMP act inh; calls as there; RFP signal change, %; measured here: RFP expression control read;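 0 = vehicle wells; hits needed this value within 50% of zero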
Starred values were filed as active, the others as inactive; i = inactive; ? = inconclusive; nt = not tested or not shown.

Every second line gives: eIF4H FP inh	CSC inhib	Yeast UUG start	PABP FP inh	MT1-MMP act inh	MT1-MMP act inh RFP	Rce1 inhib	Env fusion inh
Nc1nonc1-n1nnc(C(=O)N/N=C/c2ccccn2)c1CNc1ccccc1
 : 12	2	-10	4	-1	-1	i	7
CC(C)CCN(C(=O)C1=COCCO1)c1c(N)n(Cc2ccccc2)c(=O)[nH]c1=O
 : nt	-6	5	nt	1	1	i	9
COc1ccc2c(c1)OC[C@H]1[C@H]2N2C(=O)CN(Cc3ccco3)C(=O)[C@@]2(C)[C@H]1c1ccccc1
 : nt	-3	-4	nt	-1	0	nt	16
NC(=O)c1c(NC(=O)c2ccccc2Cl)sc2c1CCC2
 : 4	-1	-2	1	-1	0	i	-49
CCN1CCN(Cc2nc3c(c(=O)n(C)c(=O)n3C)n2CCc2ccccc2)CC1
 : 5	nt	-18	13	-5	2	nt	14
CCOC(=O)c1c(C)nc2sc3c(=O)n(-c4ccc(OC)cc4)nnc3c2c1-c1ccc(OC)cc1
 : 0	1	-8	3	-4	-5	i	nt
O=C(NCCCNC(=O)c1ccco1)c1ccco1
 : -4	-3	-13	-2	-2	3	i	23
CCOC(=O)c1c(NC(=O)CSc2nnc(-c3ccc(Cl)cc3)o2)sc2c1CCC2
 : nt	-13	nt	nt	3	5	i	-193
C=CCn1c(SCC(=O)NC2CCCCC2)nnc1-c1ccccn1
 : -4	8	-3	7	-2	-1	i	-3
CCCCCN(C(=O)CCC(=O)OCc1ccccc1C(F)(F)F)c1c(N)n(CCCC)c(=O)[nH]c1=O
 : -14	-11	-13	-12	-21	-15	i	18
Cc1nn2c3ccccc3nc2n(C)c1=O
 : -1	nt	nt	-7	0	3	i	nt
O=C(Nc1nc(-c2ccc3c(c2)OCCO3)cs1)c1ccco1
 : 7	5	-16	-3	-2	-2	i	-127
O=C(c1cc(COc2ccc(F)c(F)c2)on1)N1CCN(C2CCCCC2)C(=O)C1
 : 10	2	5	13	1	1	i	7
NS(=O)(=O)c1ccc(CCNc2cc(=O)n(Cc3ccc(F)cc3)c(=O)[nH]2)cc1
 : -6	-8	15	-4	-5	1	nt	12
CN(C)CCNC(=O)c1onc(CSc2ccc(F)cc2)c1C(=O)NCCN(C)C
 : -6	3	-20	16	9	8	i	-2
O=C(c1ccccc1[N+](=O)[O-])N1CCCC(C(=O)N2CCCCCC2)C1 (centres undefined)
 : -2	-7	-17	-17	-2	-3	i	-4
CC(/C=N\NC(=O)c1cc(C)oc1C)=C\c1ccccc1
 : -1	11	-19	0	-2	-4	i	-18
COc1ccc(CNC(=O)CN(c2ccc(C)cc2)S(=O)(=O)c2c(C)noc2C)cc1
 : -10	7	-3	-1	4	4	i	-1
CCc1ccc(OCCNC(=O)c2ccccc2SCc2ccc(F)cc2)cc1
 : -8	23	-1	4	-3	-13	i	58*
CCN1CCN(CC(O)COCC2COc3ccccc3O2)CC1 (centres undefined)
 : -4	16	nt	-13	-1	3	i	-3
NC(=O)CC(NC(=O)c1ccccc1)c1ccc(N2CCCCCC2)c([N+](=O)[O-])c1 (centres undefined)
 : 8	6	0	-5	8	-12	i	20
CC(=O)CC(=O)Nc1ccccc1NC(C)=O
 : -4	-16	-9	1	-4	-3	i	-17
Cc1cn(CC(=O)c2ccccc2)c2ccccc12
 : -2	1	3	-1	0	2	i	9
COc1ccccc1C(c1nnnn1CCc1ccccc1)N1CCN(c2ccccc2)CC1 (centres undefined)
 : -16	13	-13	-2	-42	-28	i	nt
O=C(Cn1c(NCCCO)nc2ccccc21)c1cccc(Br)c1
 : 8	-10	-12	16	-2	0	i	nt
O=C(Nc1nnc(-c2cccnc2)s1)c1cccs1
 : 0	8	3	8	3	2	i	-2
Cn1c(CSCCOc2ccccc2)n[nH]c1=S
 : -10	10	-26	-10	4	4	i	1
O=C(NC1CC1)C1CCN(C2CCN(C(=O)CCOc3ccccc3)CC2)CC1
 : -6	4	nt	-9	1	3	i	0
CCOC(=O)C1(Cc2cccc(Cl)c2)CCCN(C(=O)c2cc(C(C)C)nn2C)C1 (centres undefined)
 : -5	-6	1	4	3	-5	nt	30
CC(C)N1CCC2(CC1)N=C(c1ccc3c(c1)OCO3)CC(c1cc(Cl)ccc1O)N2 (centres undefined)
 : 1	7	nt	14	-22	-24	i	nt

With a hit mark in Env fusion inh (from the list above):
compound	Yeast UUG start	MT1-MMP act inh	MT1-MMP act inh RFP	Rce1 inhib	Env fusion inh
CCc1ccc(OCCNC(=O)c2ccccc2SCc2ccc(F)cc2)cc1	-1	-3	-13	i	58*

The listing picks up, repeating the 4 entries before the break.
Every second line gives: eIF4H FP inh	CSC inhib	Yeast UUG start	PABP FP inh	MT1-MMP act inh	MT1-MMP act inh RFP	Rce1 inhib	Env fusion inh
Cn1c(CSCCOc2ccccc2)n[nH]c1=S
 : -10	10	-26	-10	4	4	i	1
O=C(NC1CC1)C1CCN(C2CCN(C(=O)CCOc3ccccc3)CC2)CC1
 : -6	4	nt	-9	1	3	i	0
CCOC(=O)C1(Cc2cccc(Cl)c2)CCCN(C(=O)c2cc(C(C)C)nn2C)C1 (centres undefined)
 : -5	-6	1	4	3	-5	nt	30
CC(C)N1CCC2(CC1)N=C(c1ccc3c(c1)OCO3)CC(c1cc(Cl)ccc1O)N2 (centres undefined)
 : 1	7	nt	14	-22	-24	i	nt
CCCCN(C(=O)CCC(=O)Nc1cc(C)on1)C(C(=O)NC(C)(C)CC)c1cccc(OC)c1OC (centres undefined)
 : 0	-3	-2	1	-2	-3	i	-18
CCOc1ccc(NC(=S)N2CCC(NC(=O)C3CCCCC3)CC2)cc1
 : -7	-9	nt	5	3	1	i	-4
CN(C)S(=O)(=O)c1cccc(NC(=O)c2ccc(N3CCCC3=O)cc2)c1
 : nt	-8	-14	nt	-3	-8	nt	-1
COC(=O)c1cc(NS(=O)(=O)c2cccc(Cl)c2)ccc1N1CCOCC1
 : -4	-13	nt	-1	3	-5	i	9
C=CCNC(=O)Nc1ccc(Br)cc1Cl
 : -3	-2	nt	7	-3	-8	nt	25
Cc1cc([N+](=O)[O-])nn1CCCC(=O)NCc1ccccc1
 : -7	17	-14	-5	-12	-2	i	10
O=C(NC(n1ccc(=O)[nH]c1=O)C(Cl)(Cl)Cl)C12CC3CC(CC(C3)C1)C2 (centres undefined)
 : -4	-19	-5	4	1	-2	i	11
CC(=O)Nc1cc(-c2ccc(C(=O)NC3CC3)cc2)cn2c(-c3ccc(F)c(Cl)c3)cnc12
 : nt	nt	2	nt	-9	1	nt	25
COc1cccc(C2c3[nH]c4ccccc4c3C[C@H]3C(=O)N(C)CC(=O)N23)c1 (some centres undefined)
 : 6	-14	28	9	-1	1	i	18
CC(C)C(=O)Nc1ccc([N+](=O)[O-])cc1Br
 : -4	0	nt	2	4	2	i	-3
CC1CCCCC1NC(=O)Cn1nc(-c2ccccc2)ccc1=O (centres undefined)
 : 4	-5	nt	-10	0	0	i	nt
CC(=O)Nc1ccc(Oc2ccc3nc(C)[nH]c3c2)cc1
 : -7	-13	-10	9	5	1	i	nt
Cc1ccc(C)c(S(=O)(=O)N2C(=S)NC(=O)C2C(C)C)c1 (centres undefined)
 : 4	7	-17	2	2	-2	i	nt
Cc1[nH]c2ccccc2c1C(=O)CN1CCN(C/C=C/c2ccccc2)CC1
 : 1	43	-28	10	0	-4	i	-21
Nc1ccc2oc(-c3cc(Br)ccc3Cl)nc2c1
 : -8	39	-2	-6	1	3	i	nt
CCc1ccc(CN2CCC(N3CCC(C(=O)N4CCCC4)CC3)CC2)o1
 : nt	-10	-16	nt	1	2	i	-5
CCn1cc(C(=O)O)c(=O)c2cc(F)c(N3CCN(S(=O)(=O)c4ccc(Br)cc4)CC3)cc21
 : 28	0	nt	-16	nt	nt	i	nt
O=C(c1nc2ncccn2n1)N1CCN(c2ccccc2)CC1
 : -8	-1	nt	-9	7	8	i	nt
CCC1CCC(C(=O)NC(C(=O)Nc2ccc3c(c2)OCCO3)C(C)C)CC1 (centres undefined)
 : -3	8	-25	-12	-8	-4	i	-16
Cc1ccc(S(=O)(=O)NCc2ccc(C(=O)N3CCN(c4ccccc4)CC3)cc2)cc1
 : -7	2	0	4	2	-5	i	11
c1ccc(CNc2nc(NCCOc3ccccc3)c3sccc3n2)cc1
 : nt	nt	-5	nt	-8	-19	nt	30
COc1ccc(S(=O)(=O)N2CCN(C3CC4CCC3C4)CC2)cc1 (centres undefined)
 : -9	5	13	3	3	3	i	-5
Fc1ccc(-c2cc(C(F)(F)F)nc(NCC3CCCO3)n2)cc1 (centres undefined)
 : 2	nt	8	10	0	-11	i	nt
CCCCN(C(=O)c1cc2ccccc2o1)c1c(N)n(CCC)c(=O)[nH]c1=O
 : 0	-4	nt	0	1	3	i	-19
CC1(C)CC(=O)C(N=Nc2cc3c(cc2[N+](=O)[O-])OCCO3)=C(O)C1
 : ?	-10	nt	10	9	1	i	-11
CCOc1ccc(NC(=O)NC2CCCc3ccccc32)cc1 (centres undefined)
 : -8	-1	-10	-5	-4	1	i	-2
N#CCC(=O)Nc1ccc(C(=O)OCC(=O)c2ccc3c(c2)OCO3)cc1
 : nt	16	-22	nt	-5	5	i	-64
COCCNC(=O)CCSc1nc(-c2ccc(OC)cc2)cc(C(F)(F)F)n1
 : 9	-17	-2	1	0	-1	i	13
Cc1ccccc1OCCN1C(=O)c2ccccc2C1=O
 : 10	12	-4	5	0	-3	i	nt
CC(C)CC(=O)N=C1SC2CS(=O)(=O)CC2N1Cc1ccccc1 (centres undefined)
 : -13	-7	nt	8	-3	1	i	-1

More records:
Every second line gives: eIF4H FP inh	CSC inhib	Yeast UUG start	PABP FP inh	MT1-MMP act inh	MT1-MMP act inh RFP	Rce1 inhib	Env fusion inh
O=c1o[nH]c(-c2ccccc2)c1-c1ccccc1
 : nt	8	-26	nt	4	2	i	-3
Cc1ccc(S(=O)(=O)N2CCCOC2CNC(=O)C(=O)NCCc2ccco2)cc1 (centres undefined)
 : nt	nt	-8	nt	1	3	nt	-35
Cn1c2ccc(CC(=O)O)cc2c2cc(CC(=O)O)ccc21
 : 7	nt	-16	-1	13	1	i	nt
COc1ccccc1CC(=O)NNC(=O)c1ccco1
 : 2	nt	0	10	-4	0	i	4

Assay outcomes deposited in PubChem by several laboratories.
